CDC25B-CDK2 inh = primary biochemical HTRF screen for blockers of M-phase inducer phosphatase 2 binding to CDK2/cyclin A; P30305+P24941; HTRF CDC25B-CDK2/CyclinA binding, anti-His/anti-Flag; stronger effect = higher value; z-score (no concentration beside the values); 94,000 compounds, 0.72% hits; AID 1259370, 2018;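 also: score is relative to mean and SD of negative controls; strong numbers were not always called active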
TAR Tat displ = TAR RNA-Tat peptide displacers, HIV-1, primary screen, biochemical, FRET, FAM/TAMRA-labeled Tat; z-score (test concentration not listed); 100,000 compounds, 0.6% hits; HIV-1 TAR RNA, Tat peptide displacement FRET; stronger effect = higher value;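 also: score is relative to mean and SD of negative controls; some compounds called inactive have numbers as strong as hits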
Starred values were filed as active, the others as inactive; x = no result given.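 The calls were made as follows: active = z-score from 3 up in half or more of its runs; inactive = the rest.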

| structure | CDC25B-CDK2 inh | TAR Tat displ |
| --- | --- | --- |
| Cc1ccc(C2C3=C(CCCC3=O)N=C3c4ccccc4C(=O)C32)cc1 (stereo not drawn) | -2.8 | 0.37 |
| O=C(Cn1cc(S(=O)(=O)N2CCCC2)c(S(=O)(=O)N2CCCC2)c1)N1CCCCC1 | x | 1.52 |
| CN(C)c1ccc(CN(Cc2ccco2)C(=O)c2cc(=O)c3ccccc3o2)cc1 | -1.67 | -0.89 |
| O=C(NCC(c1cccs1)S(=O)(=O)c1cccs1)c1c(F)cccc1F (stereo not drawn) | x | 0.5 |
| CC(c1ccco1)N(CCN(C)C)C(=O)Nc1ccccc1 (stereo not drawn) | x | 0.34 |
| CCOc1ccc(-c2nnc(SCc3cc(=O)n4c5c(sc4n3)CCCC5)o2)cc1 | -1.57 | 0.57 |
| COCCNc1nc(Nc2ccc(OC)cc2)c2cnn(C)c2n1 | x | 0.52 |
| Cc1cn([C@H]2C[C@H](N=[N+]=[N-])[C@@H](CO)O2)c(=O)[nH]c1=O | x | 0.77 |
| O=c1[nH]ccn(-c2ccc3c(c2)OCCO3)c1=O | -0.14 | -0.82 |
| O=C1c2ccccc2C(=O)C1(Nc1ccccc1F)c1ccccc1 | x | 0.83 |
| Cc1ccc(OC(=O)CSc2nc(-c3ccccc3)nc3cc(=O)[nH]n23)c(C)c1 | x | 1.62 |
| N#Cc1nc(/C=C/c2ccc(F)cc2)oc1N1CCCC1 | -1 | 0.09 |
| O=C(O)c1cc(-c2cc(-c3cccnc3)nc3ccccc23)n[nH]1 | -0.53 | 0.86 |
| O=C1CSC2(CCCCC2)N1c1cccc(C(F)(F)F)c1 | -2.52 | x |
| Cc1cc(N(C)C)n2nc(-c3ccccc3C)nc2n1 | -2.02 | 0.59 |
| COc1cc(/C=C2\SC(=S)N(c3ccccc3)C2=O)ccc1OC(=O)C12CC3CC(CC(C3)C1)C2 | -0.98 | x |
| CCN1CNC(=S)N(CCc2ccccc2)C1 | -0.62 | x |
| Cc1ccc(OCC(=O)OCc2cc(=O)n3nc(CC(C)C)sc3n2)cc1 | x | -0.27 |
| O=[N+]([O-])c1ccc(CSc2nc3ccccc3o2)cc1 | -1.26 | x |
| Cc1cc(C)n2c(SCc3cc(=O)n4c(C)csc4n3)nnc2n1 | x | 2.07 |
| Cc1ccc(NC(=O)CCCCCC(=O)Nc2ccccc2N)cc1 | x | 2.05 |
| CN(Cc1ccccc1)C(=O)Cn1ncc2c3ccccc3n(Cc3ccccc3F)c2c1=O | -0.2 | 0.39 |
| Cc1nn(C(C)C(=O)NCCCOC(C)C)c(=O)c2cc3sccc3n12 (stereo not drawn) | -0.32 | 1.62 |
| Cc1ccc2c(c1)N(CCO)/C(=C/c1sc3ccccc3[n+]1C)S2 | -1.5 | -0.61 |
| O=C(CN1C(=O)c2ccccc2Sc2ncccc21)NCCc1cccs1 | x | -0.01 |
| Cc1nn(C(C)C(=O)NCc2cccs2)c(=O)c2cc3sccc3n12 (stereo not drawn) | -1.17 | 0.26 |
| CCn1ccc(C(=O)Nc2sc(C(=O)OC)c(C)c2C(=O)OC)n1 | -0.37 | 2.68 |
| COc1ccc(OC)c(S(=O)(=O)N2CCN(Cc3ccc4c(c3)OCO4)CC2)c1 | 1.4 | 0.11 |
| CCC(C(=O)N1CCN(C)CC1)n1nc(C)n2c(cc3sccc32)c1=O (stereo not drawn) | -2.21 | x |
| Fc1ccc(CN2CCN(C3c4ccccc4-c4ccccc43)CC2)cc1 | x | 0.22 |
| O=C(NC(Cc1c[nH]c2ccccc12)c1nc2ccccc2[nH]1)c1ccccc1 (stereo not drawn) | -2.61 | -1.73 |
| O=C(CC1(O)C(=O)Nc2ccc(F)cc21)c1ccccc1Cl (stereo not drawn) | x | 1.24 |
| O=c1[nH]nc(SCc2ccccc2)c(=S)[nH]1 | 1.56 | -0.12 |
| C#CCn1c(CCCNC(=O)c2ccco2)nc2ccccc21 | -1.54 | 2.7 |
| Cc1ccnc(NC(=O)CCc2nnc3ccc(N4CCOCC4)nn23)c1 | x | -0.14 |
| CCn1cc(C(=O)O)c(=O)c2cc(F)c(N3CCNCC3)cc21 | x | 2.33 |
| CN(C)c1cccc2cccc(N(C)C)c12 | 0.13 | x |
| COc1ccc(NC(=O)Nc2nc3c(s2)CCCC3)cc1 | -1.03 | 1.56 |
| CC1CCN(S(=O)(=O)N2CCCC(C(=O)N3CCC(C(N)=O)CC3)C2)CC1 (stereo not drawn) | x | 0.11 |
| COc1ccc(N2CCN(c3ncc4c(n3)CCCC4=O)CC2)cc1 | -0.9 | 0.49 |

The closing 4 records of the part before are carried over, then new ones follow:
| structure | CDC25B-CDK2 inh | TAR Tat displ |
| --- | --- | --- |
| CN(C)c1cccc2cccc(N(C)C)c12 | 0.13 | x |
| COc1ccc(NC(=O)Nc2nc3c(s2)CCCC3)cc1 | -1.03 | 1.56 |
| CC1CCN(S(=O)(=O)N2CCCC(C(=O)N3CCC(C(N)=O)CC3)C2)CC1 (stereo not drawn) | x | 0.11 |
| COc1ccc(N2CCN(c3ncc4c(n3)CCCC4=O)CC2)cc1 | -0.9 | 0.49 |
| Nc1nc(-c2ccc3c(c2)OCCCO3)cc(C(F)(F)F)n1 | -0.96 | x |
| O=C1CSC(=Nc2ccc(F)c(Cl)c2)N1c1ccc(F)c(Cl)c1 | -2.65 | x |
| Cc1cn2c3ccccc3nc2n1CCCO | -1.55 | 0.7 |
| O=C(CN1C(=O)C2CCCCN2c2ccc(C(=O)N3CCCC3)cc21)NC1CC1 (stereo not drawn) | x | 1.34 |
| CCOc1ccc(S(=O)(=O)c2cn(CC)c3cc(OC)c(OC)cc3c2=O)cc1 | -0.38 | -0.41 |
| O=C(O)c1cc(-c2ccco2)nc2ccc(Br)cc12 | x | 6.36* |
| COc1cccc(C2CC(c3cc(Br)ccc3F)n3nnnc3N2)c1 (stereo not drawn) | x | 1.67 |
| O=C(NCc1cccs1)C1CCCN(S(=O)(=O)c2cccnc2)C1 (stereo not drawn) | -0.78 | 2.43 |
| O=C(NC1CC1)C1CCCN(c2nn3c(=O)c4c(nc3s2)CCCC4)C1 (stereo not drawn) | x | 2.06 |
| CC(=O)Nc1ccc(/C=N/NC(=O)c2ccc(C(C)(C)C)cc2)cc1 | -0.54 | x |
| CC(C)(C)c1ccc(C(=O)NCC(c2cccs2)S(=O)(=O)c2cccs2)cc1 (stereo not drawn) | x | 0.47 |
| CCOC(=O)C1=C(C)Nc2nc3ccccc3n2C1c1ccc(F)cc1 (stereo not drawn) | x | 1.28 |
| CCOC(=O)CNS(C)(=O)=O | -1.07 | 0.94 |
| O=C(CC1SC(Cc2ccccc2Cl)=NC1=O)Nc1ccccc1 (stereo not drawn) | -2.16 | x |
| CC1(C)CC(=O)C2=C(C1)OC(N)=C(C#N)C2c1ccccc1OC(=O)c1ccccc1Cl (stereo not drawn) | -2.12 | x |
| CCCN1C(=O)C(O)(CC(=O)c2ccc(C)cc2)c2ccccc21 (stereo not drawn) | -0.52 | 0.85 |
| CC(NC(=O)c1ccc(NC(=O)C2=CSCCO2)cc1)c1ccc2c(c1)OCCO2 (stereo not drawn) | x | 1.23 |
| COc1cccc2c(=O)c(NC(=O)NCc3ccccn3)c[nH]c12 | -1.38 | 0.42 |
| O=C(c1ccc2c(c1)OCO2)N(Cc1nc(-c2ccccc2)no1)C1CCCCC1 | 0.68 | 0.97 |
| CCN(CC)CCCNC(=O)c1c(O)nc2ccccn2c1=O | -0.74 | 0.71 |
| Cc1ccc2c(Cl)c(C(=O)Nc3ccc4c(c3)OCCO4)sc2c1 | -7.63 | x |
| CCc1nn(CCCC(=O)NC2CCCCC2)c(=O)c2cc3oc(C)cc3n12 | -1.81 | -1.84 |
| Cn1nc(C(=O)N2CCc3ccccc3C2)c2c1-c1ccsc1CC2 | x | -0.45 |
| COc1ccc(/C(O)=C2/C(=O)C(=O)N(CCCN(C)C)C23C(=O)N(C)c2ccccc23)cc1 (stereo not drawn) | -0.91 | -0.03 |
| O=C1c2ccccc2NC(c2ccc3c(c2)OCO3)N1Cc1ccccc1 (stereo not drawn) | -1.41 | 1.08 |
| COc1ccc(C2=NN(c3nc(C)cs3)C(c3ccccc3)C2)cc1OC (stereo not drawn) | -2.2 | -0.2 |
| COc1ccc2c(c1)CC(NC(=O)Nc1ccc(F)cc1F)CO2 (stereo not drawn) | x | 1.44 |
| Cc1ccc(Nc2nc(N)nc(CN3CCN(C/C=C/c4ccccc4)CC3)n2)c(C)c1 | x | 1.36 |
| O=c1c2nccnc2nc(SCc2cc(=O)n3ccccc3n2)n1Cc1ccccc1 | -1.83 | 2.66 |
| Cc1nc(-c2ncc(-c3ccccc3)o2)c(C(F)(F)F)o1 | -0.92 | x |
| CC(=O)c1nnn(-c2cc(C(F)(F)F)ccc2Cl)c1C | -2.21 | x |
| COCCCNc1oc(/C=C/c2ccccc2OC)nc1C#N | -0.95 | 1.04 |
| Cc1cc(C)c2oc(C(=O)NCC(c3ccco3)N3CCCC3)cc(=O)c2c1 (stereo not drawn) | -0.19 | 1.34 |
| CCN(CC)CCNC(=O)Cn1cnc2onc(C)c2c1=O | x | -0.45 |
| CC(=O)c1csc(-c2cc(C)on2)n1 | -0.82 | x |
| NC(=O)N/N=C/c1cc(F)cc(F)c1 | -1.27 | x |
| O=C(N1CCN(c2ccc(F)cc2)CC1)C1(c2cccs2)CCOCC1 | x | 1.05 |
| CC1C(=O)C(C)C(c2cccs2)NC1c1cccs1 (stereo not drawn) | -0.2 | x |
| N#CC(CO)Cc1cc([N+](=O)[O-])ccc1N1CCOCC1 (stereo not drawn) | -2.18 | x |
| O=C(COc1ccc2ccccc2c1)Nc1nc2ccccc2s1 | -2.72 | x |
| O=C(O)c1ccc(Cn2c(SCc3ccccc3F)nc3cccnc32)cc1 | 0.55 | 1.1 |
| O=C(CC1SC(=Nc2ccc(O)cc2)NC1=O)Nc1ccc(Br)cc1 (stereo not drawn) | -0.85 | -0.16 |
| O=C(CN1C(=O)C2(OCCO2)c2ccccc21)c1ccc(C(F)(F)F)cc1 | 0.63 | x |
| Cc1ccc(CCNS(=O)(=O)c2c(C)nc3sc(C)c(C)n3c2=O)cc1 | x | 0.02 |
| Cc1cccc(C)c1OCc1nnc(CCc2ccccc2)o1 | -1.97 | 1.45 |
| Cn1cc(NC(=O)Nc2ccc(S(=O)(=O)N3CCCCC3)cc2)c2ccccc2c1=O | x | -0.61 |
| O=C(O)CCc1ccc(-c2ccc(Cl)cc2)n1Cc1ccco1 | 0.25 | -5.03 |
| COCCNc1ncnc2sc(C(=O)O)c(C)c12 | x | 2.46 |
| COc1ccc(Oc2ccc(C(F)(F)F)c(NC(=O)C3CCC3C(=O)O)c2)cc1 (stereo not drawn) | -1.76 | x |
| C=CCNC(=O)c1ccccc1NC(=O)CN1C(=O)c2ccccc2S1(=O)=O | 0.4 | 3.73 |

Rewritten field by field: entries from further up
Cc1ccc(CCNS(=O)(=O)c2c(C)nc3sc(C)c(C)n3c2=O)cc1
  CDC25B-CDK2 inh = x	TAR Tat displ = 0.02

Cc1cccc(C)c1OCc1nnc(CCc2ccccc2)o1
  CDC25B-CDK2 inh = -1.97	TAR Tat displ = 1.45

Cn1cc(NC(=O)Nc2ccc(S(=O)(=O)N3CCCCC3)cc2)c2ccccc2c1=O
  CDC25B-CDK2 inh = x	TAR Tat displ = -0.61

Next entries.
| structure | CDC25B-CDK2 inh | TAR Tat displ |
| --- | --- | --- |
| O=C(/C=C/c1ccc(Cl)c(Cl)c1)Nc1ncc(Cc2ccc(F)cc2)s1 | -2.82 | x |
| CCC(C)N[C@H]1CS(=O)(=O)C[C@@H]1S(=O)(=O)c1ccc(C)cc1 (stereo partly drawn) | -1.74 | -1.06 |
| CCCCc1nc2sc3c(NCCN4CCOCC4)ncnc3c2c2c1COC(C)(C)C2 | 1.52 | 0.66 |
| COC1=CC(=O)C[C@@H](C)[C@]12Oc1c(Cl)c(OC)cc(OC)c1C2=O | x | 3.38 |
| CS/C(=N\S(=O)(=O)c1ccccc1)Nc1c(C)nn(C)c1C | -1.11 | x |
| COc1ccc(C2NN=C(c3ccc(C)cc3)S2)cc1 (stereo not drawn) | -0.5 | 2.64 |
| O=C(CS(=O)(=O)c1ccc2c(c1)S(=O)(=O)N=CN2)N1CCC(Cc2ccccc2)CC1 | x | 0.62 |
| COc1nc2c(s1)C(=O)NCCC2 | 1.88 | 0.44 |
| Cc1nnc2c(Nc3ccccc3N3CCCCC3)nc3ccccc3n12 | -2.01 | 1.17 |
| CN(C(=O)c1ccc2nccnc2c1)C1CCCCC1 | 0.04 | x |
| O=C1C(=O)N(CCN2CCOCC2)C(c2cccs2)/C1=C(\O)c1ccccc1 (stereo not drawn) | -2.18 | -0.56 |
| COc1cc(NC(=O)COc2ccc(F)cc2)nc(OC)n1 | -0.39 | 1.23 |
| CC(C)(C)NC(=O)NCc1nnnn1-c1ccccc1 | x | 0.8 |
| Cc1ccc(NS(=O)(=O)c2ccc3c(c2)N(C)CCO3)cc1 | x | 1.7 |
| Cn1c(=O)[nH]c(=O)c2c1nc(N1CCCCC1)n2CC(N)=O | 1.55 | x |
| CC1CCC2C(=O)N(c3ccc(C(=O)OC(C)C(=O)c4ccccc4)cc3)C(=O)C2C1 (stereo not drawn) | -1.91 | 1.66 |
| COc1cc(C2C(C(=O)OCC3CCCO3)=C(C)NC3=C2C(=O)CCC3)ccc1OCCO (stereo not drawn) | -1.92 | 1.77 |
| CCCC1=C(C(=O)OCC)C(c2ccccc2)n2c(nc3ccccc32)N1 (stereo not drawn) | -0.33 | 2.05 |
| FC(F)(F)c1cc(NC(=S)NCCCN2CCOCC2)cc(C(F)(F)F)c1 | -0.2 | x |
| O=C(NCc1ccco1)c1cc2c(ccc3ccccc32)oc1=O | -3.34 | x |
| O=C(Cn1cnc2sc3c(c2c1=O)CCCC3)NCCC(=O)Nc1ccc2c(c1)OCCO2 | -0.5 | x |
| CC(C)(C)c1ccc(C(=O)CC2(O)C(=O)Nc3ccc(Cl)cc32)cc1 (stereo not drawn) | 0.37 | 0 |
| c1ccc(Cn2c(NCc3cccs3)nc3ccccc32)cc1 | -0.6 | -0.8 |
| COc1ccc(C)cc1Nc1cc(C)nc(C)n1 | -1.68 | -0.51 |

Screens as filed in PubChem.
